Screens (PubChem BioAssay)
BJeLR lethal: kills HRASV12-expressing BJeLR cells | actives 0.17% (n = 300,000) | AID 1554 | BJeLR (HRASV12) viability, CellTiter-Glo ATP luminescence, 48 h; reference of the scale not given here | inhibition, % (no concentration beside the values);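 active = replicate mean above 50%; inconclusive = above 50% but judged a plate artefact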;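 note: 50 nL library stock added to about 25 µL; numbers are from one replicate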
PrP UTR inh: suppresses PrP 5' UTR mRNA reporter expression; cell-based PrP 5' UTR mRNA reporter, plate reader; actives 0.35% (n = 340,000); inhibition, % (concentration not given with the values);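 active = every replicate at 50% or more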;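 note: 0 = median of the neutral control wells; tested in H4 reporter cells; numbers are from one replicate; inactives centre near -14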
Autofluor counter: counter-screen for toxin protease inhibitors: compound fluorescence. AID 624483. fluorescence intensity (concentration not given with the values). actives 3.1% (n = 360,000). compound autofluorescence counterscreen, microsphere flow cytometry; stronger effect = higher value;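 active = at least 3 SD above the mean of all compounds, about 16000 in these data; inconclusive = too few beads counted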;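 note: 100 nL of 1 mM stock went into each well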
Sa ugtP lethal: kills S. aureus RN4220 lacking UgtP; S. aureus RN4220 ugtP deletion, OD600 growth, 16 h; some inactives read as strong as hits; growth inhibition, % (test concentration not listed); actives 0.54% (n = 330,000); AID 1259309;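 active = z-score under -3 and OD600 up to 0.15 on both plates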;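 note: plate controls were untreated wells for no effect and antibiotic for full effect; wells of about 80 µL received 100 nL stock; the first replicate is given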
Mtb hypoxia inh: Mtb hypoxia fluorescent reporter inhibition; M. tuberculosis hypoxia-regulated fluorescent reporter, fluorescence; fluorescence inhibition, % (concentration not given with the values); actives 0.1% (n = 300,000);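 active = 35 to 45% if threefold the growth effect, above 45% if 1.5-fold the growth effect; inactive = the rest, general growth blockers included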;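 note: wells of about 50 µL received 100 nL stock; 0% = vehicle wells and 100% = reference inhibitor wells; whole bacteria with a GFP reporter of the hypoxia response; strong numbers were not always called active; many hits fall short of the cut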
Sa RN4220 lethal: S. aureus RN4220 growth inhibition | OD600, 16 h | inhibition, % (test concentration not listed) | actives 0.33% (n = 330,000);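 active = z-score of -3 or lower and OD600 up to 0.18 on both plates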;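 note: plate controls were untreated cells for no effect and reference antibiotic for full effect; stock transfer was 100 nL into about 80 µL; one replicate is shown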
Mtb hypoxia inh growth: second read-out of Mtb hypoxia inh, no call of its own (marks repeat the call); growth inhibition, %; measured here: M. tuberculosis growth (absorbance);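 0% = vehicle and 100% = reference antibiotic; read after six days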
* hit, by the source's call; ? = inconclusive; nt = no result given.

SMILES	BJeLR lethal	PrP UTR inh	Autofluor counter	Sa ugtP lethal	Mtb hypoxia inh	Mtb hypoxia inh growth	Sa RN4220 lethal
Cc1ccc(NC(=O)c2c([N+](=O)[O-])c(C(C)(C)C)nn2C)c(C)c1	-3.0	4.2	2240	12.2	16.6	3.3	29.4
COc1ccc(-c2[nH]ncc2CNC(C)CCn2cccn2)cc1F (stereo not drawn)	-1.8	-34.2	4394	3.6	-7.4	-4.0	9.2
Cc1nnc(Nc2ccc(F)cc2)c2ccccc12	-0.8	-19.9	3293	3.9	-1.9	19.0	8.4
CCS(=O)(=O)Nc1cccc(C2=NN(C(=O)c3ccco3)C(c3ccco3)C2)c1 (stereo not drawn)	27.3	-33.2	3858	-2.2	-9.5	-7.8	-3.5
O=C(Nc1ccc(F)cc1F)c1cc(-c2ccco2)nc2ccccc12	10.1	-16.5	3413	12.8	15.3	9.6	3.3
CC(C)[C@@H](COc1ccccc1)N1CCN(Cc2ccccc2)CCC1=O	3.1	-18.0	3072	nt	nt	nt	nt
Cc1c(C(=O)N2CCN(CC(=O)Nc3ccccc3Cl)CC2)oc2ccc(Br)cc12	nt	-21.2	3547	10.5	10.7	6.2	0.0
COC(=O)c1ccccc1NC(=O)CSc1nc(O)cc(=O)n1C1CCCC1	10.2	-6.9	3605	-16.2	2.2	4.2	-1.1
CCn1cc(NC(=O)Nc2ccc(OC)c(OC)c2)c(C(N)=O)n1	0.9	-10.2	4272	-1.8	8.6	22.3	2.6
CCCCOc1ccc(C(=O)N2CCNC(=O)C2)cc1	-2.4	-12.1	5631	1.4	3.6	-5.8	2.2
CCCCN(C)CCn1c(=S)[nH]c2ncccc2c1=O	-2.4	-8.6	nt	7.4	-5.0	-4.4	2.8
Cc1[nH]nc2ncc(C(=O)c3cc(Cl)cc(Cl)c3O)cc12	-0.4	-5.6	3525	0.8	14.0	8.9	8.6
CCOC(=O)Cn1nc(C)n(-c2ccc(C(C)(C)C)cc2)c1=O	-1.9	-5.7	5731	4.1	7.0	9.0	1.3
Cc1ccc(C(=O)CSc2nnc(Cn3nnc4ccccc43)n2C)cc1	-8.4	-6.9	6901	2.5	-0.4	-2.0	2.2
CC(=NNC(=O)c1ccncc1)c1ccc(Cl)cc1Cl	nt	-12.8	3540	7.9	19.5	12.1	3.4
CCNC(=S)N1CCN(C(=O)C(Cc2ccccc2)NC(C)=O)CC1 (stereo not drawn)	nt	-29.2	3629	6.2	9.3	3.9	0.0
Cc1nnc2sc(SCc3ccccc3)nn2c1=O	-9.5	nt	nt	21.5	3.5	7.9	5.7
Cc1ccc(NC(=O)C2CCCN(S(=O)(=O)c3ccc4[nH]c(=O)ccc4c3)C2)nc1 (stereo not drawn)	13.0	-17.5	5577	2.2	9.5	6.6	1.4
COc1ccc(N2CCN(CCS(=O)(=O)c3cc(Cl)ccc3Cl)CC2)cc1	nt	-34.5	3533	1.2	6.3	-3.2	-0.6
Cc1cc(C(=O)CSc2nncn2C)c(C)n1-c1ccccc1	-7.2	-77.9	2592	8.4	12.2	1.3	5.9
C/C(=N\NC(=O)c1ccccc1F)c1cccc(NC(=O)c2ccccc2)c1	2.0	-10.8	5163	nt	nt	nt	nt
COc1ccc(NS(=O)(=O)c2cccc(NC(=O)c3ccccn3)c2)cc1	8.1	-19.8	4037	10.7	10.4	10.7	2.6
CC(=O)Nc1ccc(N2C(=O)C3C4CC(=O)C(c5ccccc54)C3C2=O)cc1 (stereo not drawn)	8.8	-7.6	2455	3.3	17.4	6.6	-9.6
CSc1ncccc1C(=O)N1CCN(S(=O)(=O)c2cc(C)ccc2C)CC1	-8.2	-20.2	5695	2.6	-4.6	0.6	9.6
CC(C)(C)c1ccc(CS(=O)(=O)CC(O)CN2CCCC2=O)cc1 (stereo not drawn)	-4.9	-9.3	3752	10.2	-8.1	-9.2	5.3
Later entries:
SMILES	BJeLR lethal	PrP UTR inh	Autofluor counter	Sa ugtP lethal	Mtb hypoxia inh	Mtb hypoxia inh growth	Sa RN4220 lethal
CSc1ccc(/C=N/S(=O)(=O)c2ccccc2)cc1	14.5	-20.3	3696	nt	nt	nt	nt
COc1cccc(N2CC(C(=O)Nc3nnc(SCC(=O)Nc4cc(C)on4)s3)CC2=O)c1 (stereo not drawn)	1.6	-11.5	4138	7.3	8.7	-1.2	-9.5
CC1(C)Cc2ccccc2C(N/N=C/c2ccc([N+](=O)[O-])cc2)=N1	-4.2	-2.1	4218	nt	nt	nt	nt
O=C(OCC(=O)N1CCN(c2ccccc2)CC1)c1ccc2ccccc2n1	0.6	-10.5	15737	7.3	14.4	4.8	5.5
CN(CC(=O)Nc1ccc(Cl)c(C(F)(F)F)c1)C(=O)C1CCC1	5.1	-8.4	nt	-0.9	2.3	7.4	0.3
Brc1cccc(CN2CCN(c3ncccn3)CC2)c1	8.6	-24.8	4241	1.3	0.6	0.0	1.6
CS(=O)(=O)c1ccc(Cl)c(NC(=O)COc2ccc3c(c2)CCC3)c1	-4.1	-38.6	nt	5.2	3.5	4.4	4.0
O=C(O)C(NS(=O)(=O)c1cccc2nsnc12)c1ccccc1 (stereo not drawn)	-4.3	-22.1	5041	-0.7	8.7	3.9	-1.9
CC1Sc2ccc(S(=O)(=O)CCC(=O)N3CCN(c4ccccc4F)CC3)cc2NC1=O (stereo not drawn)	3.6	-5.5	5499	6.1	4.1	1.5	0.4
O=C(NCc1csc2ccc(Cl)cc12)Nc1cccc2ccccc12	-12.7	-31.1	5754	-6.7	-6.9	3.1	-0.1
O=C1CCc2ccccc2N1	1.7	-11.9	3503	5.7	13.5	8.9	11.1
C/C(=N\Nc1nc(N2CCCCC2)nc(N2CCOCC2)n1)c1ccccc1O	2.8	80.6*	4483	nt	nt	nt	nt
O=C1C2C3C=CC(C3=C(c3ccccc3)c3ccccc3)C2C(=O)N1CCO (stereo not drawn)	-2.3	-21.3	16812*	19.2	-1.9	-1.7	6.9
Cn1c(=O)oc2cc(S(=O)(=O)N3CCC(C(=O)N4CCN(c5ccc(F)cc5)CC4)CC3)ccc21	5.6	-12.3	5509	18.4	-1.3	-12.0	6.8
Cc1cccc(-c2cc3nc4c(c(N5CCCC(O)C5)n3n2)CCC4)c1 (stereo not drawn)	4.2	-4.5	9417	-10.2	5.2	5.5	3.2
COc1ccccc1CNC(=O)COC(=O)C1CCN(S(=O)(=O)c2ccc(C)c(C)c2)CC1	-3.1	-16.0	?	7.5	6.2	-4.9	-0.6
COCCN(C(=O)CCCC(=O)Nc1ccccn1)C(C(=O)NC1CCCCC1)c1ccc(C)cc1 (stereo not drawn)	6.3	-20.7	2557	-8.0	14.6	14.1	-18.8
Cc1ccc(N=Nc2c(O)ccc3n[nH]nc23)cc1	-6.0	-91.5	3661	nt	nt	nt	nt
CCOc1ccccc1N(CC(=O)NC1CCCCC1)S(C)(=O)=O	-1.8	-7.5	4092	-1.6	8.7	19.5	3.5
O=C(c1cccc(F)c1)N1CCN(S(=O)(=O)c2ccccc2)CC1	-0.1	-40.3	2854	5.6	7.4	4.4	7.3
COc1cc(C(=S)N2CCOCC2)ccc1OC(=O)c1cc([N+](=O)[O-])cc([N+](=O)[O-])c1	-9.7	-18.3	1908	5.9	5.6	6.5	4.5
Cc1ccc(Nc2nc(-c3cccs3)cs2)nc1	7.6	24.8	4551	35.8	6.5	6.8	-0.3
CCc1ccc(CC2S/C(=C(\C#N)C(C)=O)NC2=O)cc1 (stereo not drawn)	19.3	-22.6	3322	15.2	-8.3	-2.0	31.7
COCc1c(C(=O)N2CCN(CCOc3ccccc3)CC2)oc2ccccc12	nt	-17.4	6512	16.6	5.0	-2.7	1.9
O=S(=O)(NC1CCCCC1Sc1ncccn1)c1ccccc1 (stereo not drawn)	-2.9	-4.8	2022	nt	nt	nt	nt

Continued; the last 4 above are carried over.
SMILES	BJeLR lethal	PrP UTR inh	Autofluor counter	Sa ugtP lethal	Mtb hypoxia inh	Mtb hypoxia inh growth	Sa RN4220 lethal
Cc1ccc(Nc2nc(-c3cccs3)cs2)nc1	7.6	24.8	4551	35.8	6.5	6.8	-0.3
CCc1ccc(CC2S/C(=C(\C#N)C(C)=O)NC2=O)cc1 (stereo not drawn)	19.3	-22.6	3322	15.2	-8.3	-2.0	31.7
COCc1c(C(=O)N2CCN(CCOc3ccccc3)CC2)oc2ccccc12	nt	-17.4	6512	16.6	5.0	-2.7	1.9
O=S(=O)(NC1CCCCC1Sc1ncccn1)c1ccccc1 (stereo not drawn)	-2.9	-4.8	2022	nt	nt	nt	nt
O=S(=O)(NCc1ccco1)c1cnc(Cl)c(Cl)c1	-6.1	-49.0	4667	2.8	9.1	-5.9	-0.2
O=C(CCN1CCCCC1)Nn1c(=S)[nH]c2ccccc2c1=O	-3.4	-31.3	23257*	7.9	4.7	-10.6	3.6
COc1ccc(O)c(C=NNC(=O)c2ccc(N3CCCC3=O)cc2)c1	nt	nt	nt	-6.3	-5.2	0.6	5.8
O=C(Nc1cccc(NC(=O)c2ccc(-c3ccc(Br)cc3)o2)c1)c1ccccc1	2.2	-7.1	2227	9.5	nt	nt	-1.9
O=[N+]([O-])c1ccc(OCCOCCOc2ccc([N+](=O)[O-])cc2)cc1	-2.2	-16.6	4753	8.4	2.3	0.2	1.2
CCOCCCN(CCC#N)C(=O)C1CCN(S(=O)(=O)c2ccc(-n3cnnn3)cc2)CC1	0.4	-11.5	6198	1.5	6.8	2.4	3.4
COc1ccccc1-n1c(SCC(=O)N2CCCCC2)nc(O)c(Cc2ccccc2)c1=O	-0.1	-8.3	5458	5.8	-5.1	4.8	3.1
O=C(NCCSc1ccccc1)c1cccnc1	9.8	-75.7	8850	13.1	16.4	4.6	5.1
C/C(=N\NC(=O)CCCNc1ccc(C)cc1)c1ccccn1	-12.6	-16.3	2048	nt	nt	nt	nt
COc1ccc(C2(CNS(=O)(=O)c3ccc(C)cc3)CCOCC2)cc1	-7.0	-13.3	6581	2.0	13.2	0.2	5.6
O=C(NCCCn1ccnc1)C(=O)NCC1OCCN1S(=O)(=O)c1ccc(F)cc1 (stereo not drawn)	-2.1	7.2	4965	4.4	6.5	3.8	-0.1
CC1(C)CC(=NOC(=O)c2ccccc2)CC(C)(C)N1O	-4.1	-13.9	3000	1.8	7.8	7.9	0.2
Cc1ccc(/C=N/N2CCN(c3ccccc3)CC2)cc1	3.6	-60.5	3853	nt	nt	nt	nt
COCCn1ccc2c(OCC(=O)NCCc3ccccc3)cccc2c1=O	3.2	-34.4	5323	4.6	3.7	-0.5	1.5
N#Cc1nc(COc2ccccc2Cl)oc1NCc1ccc(F)cc1	2.1	-20.0	22901*	-12.7	0.9	0.5	-0.2
CCOC(=O)c1c(Nc2ccccc2OCCOC)n[nH]c1C	16.1	-38.1	nt	-1.6	-8.5	-5.0	2.3
CC1CN(C(C)CO)C(=O)c2cc(NC(=O)Cn3cnnn3)ccc2OC1CN(C)Cc1ccncc1 (stereo not drawn)	nt	nt	nt	0.1	2.5	4.5	-0.4
O=C(CCn1nnc2ccccc2c1=O)N[C@H](C(=O)O)c1ccccc1	0.9	-16.4	9456	-1.1	2.8	-1.5	7.0
O=C(COc1ccc(Cl)cc1Cl)NN=CC1CC=CCC1 (stereo not drawn)	nt	nt	nt	-1.3	3.8	-5.1	1.1
O=C(O)C1Cc2ccccc2N2CCCC12 (stereo not drawn)	-8.0	2.5	3719	-2.7	-10.9	3.2	1.4
CCc1ccc2c(Cl)c(C(=O)N/N=C/c3c[nH]c4ccccc34)sc2c1	-13.7	-18.6	3866	nt	nt	nt	nt
O=c1sc2ccccc2c(N2CCCC2)c1[N+](=O)[O-]	-3.1	-11.3	3406	5.6	-2.0	1.1	11.1
O=C(CNC(=S)N(CCCN1CCOCC1)Cc1cccs1)N1CCCC1	-0.9	-15.3	3240	3.2	7.8	4.3	0.0
CCOC(=O)NC(NCc1ccccc1Cl)(C(F)(F)F)C(F)(F)F	-3.7	-26.8	3211	-2.7	16.4	5.0	5.4
COc1ccc(-c2cc(C(F)(F)F)nc(SCC(=O)Nc3cc(C)on3)n2)cc1	18.8	-2.6	2630	-0.3	2.1	10.3	2.7
COc1ccc(-c2nnc(SCC(=O)Nc3cc(S(=O)(=O)N4CCCCC4)ccc3Cl)n2N)cc1	6.2	-14.3	8812	-6.3	5.9	3.8	4.4
